Screening data (PubChem)
CtBP-E1A blk – CtBP/E1A binding inhibition; AlphaScreen GST-E1A/His-CtBP binding, 1536-well; active compounds read low; control for the full effect not named in the record; activity change, % (no concentration beside the values); 340,000 tested, 0.49% active; in the data active means activity change below about -65%; inconclusive means about -30% to -65%; inactive means above about -30%; also: % is scaled to controls: 0 for no effect and ±100 for the full control effect
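Steps: dispense buffer (Tris pH 8.0, NaCl 300 mM, TCEP 1 mM, BSA, Tween 20); add 5X protein mix (GST-E1A, His-CtBP, 125 nM each); pin 23 nL compound; 2 h at 37 °C, dark; add 5X beads (50 ug/mL); 1 h; read.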
D2 PAM – potentiates the human D2 dopamine receptor allosterically. P14416. DiscoveRx D2 beta-arrestin cells, luminescence, 90 min; 100% = 57 uM dopamine signal. potentiation, % (concentration not given with the values). 360,000 tested, 0.23% active. AID 624464; active = potentiation of 50% or more; inconclusive = 30% to 50%; inactive = 30% or less;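 also: compound concentration not given in the record; tested on top of an EC20 dose of dopamine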
Target sequence (P14416 whole entry, looked up): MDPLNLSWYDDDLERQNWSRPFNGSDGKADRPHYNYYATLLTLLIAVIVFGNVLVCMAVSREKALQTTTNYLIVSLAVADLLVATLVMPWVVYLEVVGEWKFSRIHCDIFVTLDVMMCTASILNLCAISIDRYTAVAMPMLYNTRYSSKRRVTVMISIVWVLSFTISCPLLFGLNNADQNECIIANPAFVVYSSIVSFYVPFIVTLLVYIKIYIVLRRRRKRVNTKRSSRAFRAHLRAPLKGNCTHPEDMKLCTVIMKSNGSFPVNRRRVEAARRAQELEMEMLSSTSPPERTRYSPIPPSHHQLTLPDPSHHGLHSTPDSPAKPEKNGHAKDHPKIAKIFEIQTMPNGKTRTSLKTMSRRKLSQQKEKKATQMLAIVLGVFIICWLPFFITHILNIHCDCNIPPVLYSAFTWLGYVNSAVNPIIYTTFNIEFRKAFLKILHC
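PathHunter beta-arrestin assay in DiscoveRx D2 cells. Compounds were added with an EC20 of dopamine (50 nM final) for 90 min at 37 deg C. Luminescence was read 1 h after detection reagent, with 57 uM dopamine as the EC100 control.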
gsp antag – antagonizes gsp, the McCune-Albright syndrome mutation; 340,000 tested, 0.4% active; Potency, µM (highest dose often 76.9 µM), for the others: at the highest dose activity change, negative = inhibition, hits mostly inhibitors; gsp-mutant cells, cAMP HTRF, 30 min; control for the full effect not named in the record; active = falling curve of any shape with a large fitted effect; inconclusive = falling curve, mostly with a smaller effect; inactive = flat or rising curve; cell line not stated here;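 also: intracellular cAMP measured with PDE inhibitor Ro 20-1724 present during compound exposure; potency is read from the fitted curve at half-maximal effect; % is scaled to controls: 0 for no effect and ±100 for the full control effect; nearly all actives have a fitted effect of over 65% in size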
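Cells, 2000/well, grown 16–24 h in DMEM 10% FBS with 0.5 mg/ml G418, then compounds plus […] (300 uM addition stock), 30 min at 37C. cAMP read by HTRF (cAMP-d2 and anti-cAMP antibody-K in lysis buffer) after 30 min RT.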
Six1-Eya2 inh – inhibitors of human Six1/Eya2 interaction. Q15475+O00167. AlphaScreen GST-Six1/His-Eya2 binding, biochemical; active compounds read low; control for the full effect not named in the record. activity change, % (test concentration not listed). 360,000 tested, 0.56% active; in the data active = activity change below about -65%; inconclusive = about -30% to -65%; inactive = above about -30%; also: % is scaled to controls: 0 for no effect and ±100 for the full control effect
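GST-Six1 + His-Eya2 (5X stock: 250/500 nM); Tris pH 8.0, 300 mM NaCl, 0.05% BSA, 0.02% Tween 20; GSH donor/Ni acceptor beads; 1 h 37 °C dark; AlphaScreen readout.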
D2 ag – activates the human D2 dopamine receptor; P14416; DiscoveRx PathHunter D2 beta-arrestin, luminescence, 90 min; 100% = 57 uM dopamine signal; activation, % (concentration not given with the values); 360,000 tested, 0.084% active; in the data active = activation above about 40%; inconclusive = about 15% to 40%; inactive = below about 15%; also: compound concentration not given in the record; the text of the record calls up to 30% inactive
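DiscoveRx PathHunter D2 beta-arrestin cells (2,100/well) attached overnight, then compound-stimulated 90 min at 37 C in HBSS/10 mM HEPES/0.1% Tween-20 buffer; beta-galactosidase complementation read by luminescence after 1 h at ambient temperature. Dopamine 57 uM final (EC100) as control.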
gsp ag – activates gsp, the McCune-Albright syndrome mutation; 340,000 tested, 0.13% active; Potency, µM (doses to about 76.9 µM), for the others: at the highest dose activation (cAMP increase), actives largely listed as activators; gsp mutant cells, cAMP HTRF, 30 min; control for the full effect not named in the record; active = well fitted activation curve with a large enough effect; inconclusive = small, poorly fitted or top-dose-only effect, or another doubt; inactive = no such curve, though single readings can be large or run the other way; cell line not stated here;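 also: phosphodiesterase inhibitor Ro 20-1724 added with compounds to block cAMP breakdown; potency is read from the fitted curve at half-maximal effect; nearly all actives have a fitted effect of over 60% in size; about a fifth of the inactives were tested at one dose only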
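Cells stably selected in G418 were plated at 2000/well, grown 16-24 hr, then given compounds in DMSO with the PDE inhibitor […] (300 uM solution added) for 30 min at 37C; cAMP was read by HTRF.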
* hit, by the source's call; ? = inconclusive; . = no result given; [ ] = remark or other dose.

SMILES	CtBP-E1A blk	D2 PAM	gsp antag	Six1-Eya2 inh	D2 ag	gsp ag
NC(=O)c1c(NC(=O)c2ccco2)sc2c1CCC2	-14	-6	7%	?	-0.2	-25%
N/C(=N\c1nc2c(c(=O)[nH]1)CCCC2)Nc1ccc(Oc2ccccc2)cc1	-4	-4	-1%	1	1.0	13%
O=C1CC(C(=O)Nc2ccc(F)cc2)n2cnnc2N1 (stereo not drawn)	6	2	-5%	-17	-3.1	-1%[15.4 µM]
Cc1cc(Br)ccc1NC(=O)C(C)c1ccc([N+](=O)[O-])cc1 (stereo not drawn)	.	-12	-8%	0	-0.8	1%
Cc1ccc(S(=O)(=O)N2CCCCC2CCNC(=O)C(=O)Nc2ccccc2F)cc1 (stereo not drawn)	2	-3	-3%	3	1.8	15%
O=C(CCc1nc(-c2ccccc2)no1)Nc1cccc(C(=O)NC2CC2)c1	.	0	-10%	11	-9.5	2%
Cc1ccc(NS(=O)(=O)c2cccc(C(=O)N/N=C/c3c(C)nn(-c4ccccc4)c3N3CCCC3)c2)c(C)c1	-9	13	-12%	-12	3.6	1%[15.4 µM]
Cc1cc(C)nc(OC(=O)c2c(Cl)cc(Cl)cc2Cl)n1	0	-2	3%	0	1.6	15%[15.4 µM]
Cc1cc(C(=O)N(NC(=O)C(C)C)c2ccccc2)cs1	4	0	-2%	6	0.8	-28%
O=C(NCc1ccc(-c2nc3ccccc3s2)cc1)c1ccc(Br)o1	-6	-18	-5%	8	0.4	7%
C=CCC1C=C(C)CC(CC=C)N1 (stereo not drawn)	12	1	9%	-1	-1.8	-2%
Cc1ccnc(N2CCCC(C(=O)Nc3cc(F)ccc3C)C2)n1 (stereo not drawn)	2	-6	9%	2	-0.3	6%
C=CCN1C=CC=C/C1=C1\SC(=S)N(C)C1=O	0	-7	-11%	-5	-0.7	5%[15.4 µM]
CCCC(C)NC1=NCCCCC1 (stereo not drawn)	-5	-10	4%	0	0.8	4%
COc1ccc(CNC(=O)C2CCCN(S(=O)(=O)c3cccc4nsnc34)C2)cc1 (stereo not drawn)	-4	-3	-12%	-10	0.5	3%
O=C(CSc1n[nH]c(-c2cccnc2)n1)Nc1ccc(Cl)cc1	4	-6	-14%	-8	-2.9	-8%
COc1ccc(CN2CC(C(=O)NCCCN3CCCCC3)CC2=O)cc1 (stereo not drawn)	6	-8	17%	-1	-3.8	13%
CC1CCCN(S(=O)(=O)c2ccc3[nH]c4c(c3c2)CCCC4)C1 (stereo not drawn)	-19	-1	-8%	-15	-1.1	?
CCCCCCCC(=O)OCC(=O)[C@@]1(O)CC[C@H]2[C@@H]3CCC4=CC(=O)CC[C@]4(C)[C@H]3[C@@H](O)C[C@@]21C	3	6	3%	-3	?	.
COc1ccc(-c2noc(CCC(=O)N3CCN(c4cccc(Cl)c4)CC3)n2)cc1	-5	.	?	2	5.3	.
Cc1ccc2nc(NC(=O)C3CCN(S(=O)(=O)c4cnc[nH]4)CC3)sc2c1	21	-4	-4%	5	-3.7	-10%
O=C(c1ccc(Br)cc1)C(CN1CCOCC1)c1ccccc1 (stereo not drawn)	1	-13	0%	-21	-6.1	0%[15.4 µM]
CCOC(=O)c1cccc(N2CC3CNC(=O)C2(C(=O)OC)N3C)c1 (stereo not drawn)	2	-13	1%	6	-1.8	-4%
CN1CCN(Cc2cn(C)nc2-c2ccccc2F)CC1c1ccccc1 (stereo not drawn)	4	-9	-13%	0	-0.2	-15%[15.4 µM]
C/C(=N/NC(=O)c1ccco1)c1cccc(NC(=O)c2ccc(C)o2)c1	1	-14	0%	0	-0.9	?
COc1cccc(C2C(C#N)=C(N)Oc3cc(C)[nH]c(=O)c32)c1OC (stereo not drawn)	-1	-12	2%	-2	-4.1	19%
Cc1ccccc1OCc1nc2c3cnn(C)c3ncn2n1	-1	-9	7%	2	0.5	16%
O=C(NCC1CCCN(C(=O)c2cscn2)C1)c1ccc(-c2ccccc2)cc1 (stereo not drawn)	0	-4	-6%	7	3.4	4%
Cc1ccnc(NC(=O)c2cccc(S(=O)(=O)N3CCCc4ccccc43)c2)c1	-3	-4	?	-3	2.6	-12%
COc1ccccc1Cn1c(=O)oc2ccc(C)cc21	11	1	-14%	-2	-2.3	?
COc1cc(-c2noc(C)c2C#Cc2ccccn2)cc(OC)c1OC	.	10	8%	-17	1.2	?
CCC(=O)N1CCCC(C)(C(=O)Nc2ccc3scnc3c2)C1 (stereo not drawn)	1	4	.	-3	-3.5	.
Cc1cc(C(=O)Nc2ccc3c(c2)CCC3)c2ccccc2n1	-4	1	-9%	0	-2.1	-11%[15.4 µM]
OC[C@@H]1CN(Cc2cccs2)C[C@H](n2cnc3c(NCc4ccc(F)cc4)ncnc32)O1	-9	1	.	-20	-3.5	.
O=C(O)/C(=C1\OC(=O)c2ccccc21)c1ccccc1	17	6	-8%	0	-4.1	1%
CC(C)C1Nc2ccc(C(=O)O)cc2C2C=CCC21 (stereo not drawn)	-11	0	2%	?	2.1	9%[15.4 µM]
CC/C(C)=N/Nc1cccc([N+](=O)[O-])c1	-22	3	12%	-21	5.1	-23%
COC(=O)c1ccc(N2CCN(c3ccccc3)CC2)nc1	-8	-6	2%	-5	7.0	13%
CN(C1=C(N2CCOCC2)C(=O)c2ccccc2C1=O)c1ccccc1	?	-30	-15%	-82*	-7.8	2%
CC(=O)NC(=S)Nc1cc(C(F)(F)F)ccc1N1CCOCC1	4	6	6%	-4	-1.1	-5%[15.4 µM]
Cc1ccc(-n2c(SCC(=O)N/N=C/c3ccc(C)s3)nnc2-c2ccccc2)cc1	0	-13	-31%	8	-0.4	-26%
COc1ccc(/C=C/c2nc3cc(-c4ccccc4)ccc3o2)cc1O	14	4	-6%	13	5.1	1%[15.4 µM]
OCC1(Cc2cccc(Cl)c2)CCCN(Cc2cnn(-c3ccccc3)c2)C1 (stereo not drawn)	.	-16	4%	2	-1.8	0%
CCC(=O)Oc1ccc(NC(=O)c2ccco2)cc1	0	7	3%	4	-1.8	14%
CCN1CCN(c2cc(C)c3cc(NC(=O)c4ccc(C)c(C)c4)ccc3n2)CC1	.	-14	9%	-1	-5.1	-32%[inhibitor]
O=P1(O)Cc2ccccc2-c2ccccc21	4	6	7%	10	-0.1	4%
CNC(=O)c1nn(C)c(=O)[nH]c1=O	-6	-1	5%	1	0.4	-7%
COc1ccc(C2/C=C\CC(NS(=O)(=O)c3ccc(C)cc3)CC(=O)N2Cc2ccccc2F)cc1 (stereo not drawn)	-3	-3	-7%	-3	0.6	.
CN(c1ccc(C(=O)N2CCCCCC2)cc1)S(=O)(=O)c1ccc(Cl)cc1	9	9	-6%	-1	2.9	?
O=C(CSc1nnc2c(n1)[nH]c1ccc(F)cc12)NCc1ccc(F)cc1	0	-2	8%	-3	-2.5	7%[15.4 µM]

(further entries)
SMILES	CtBP-E1A blk	D2 PAM	gsp antag	Six1-Eya2 inh	D2 ag	gsp ag
CC(C)(C)OC(=O)N1CCCC(C(=O)Nc2cccc(C(=O)N3CCCC3)c2)C1 (stereo not drawn)	2	1	0%	-3	0.0	-9%
CC1(C)COCN1C(=O)c1ccc(Cl)c(Cl)c1	5	-13	10%	-3	-4.0	-2%[15.4 µM]
CN(C(=O)CC1C(=O)NCCN1Cc1c(F)cccc1Cl)C1CCOCC1 (stereo not drawn)	19	-15	3%	16	1.8	-6%
Cc1c(Cl)cccc1NC(=O)C(=O)NNS(=O)(=O)c1ccc(F)cc1	2	-1	1%	1	0.2	-18%
COc1cc(C2Nc3cccc4cccc(c34)N2)ccc1OC(C)=O	-23	?	-5%	-20	7.5	-6%
N#CCSc1nc(-c2ccccc2)nc2ccccc12	8	4	12%	1	-5.7	27%
CC(=O)C1=C(C)N(Cc2ccccc2)C(=O)N[C@H]1c1cccc(F)c1	0	5	11%	20	-0.7	.

Grouped by structure: the entries above with a Cl atom (8)
SMILES	CtBP-E1A blk	D2 PAM	gsp antag	Six1-Eya2 inh	D2 ag	gsp ag
Cc1cc(C)nc(OC(=O)c2c(Cl)cc(Cl)cc2Cl)n1	0	-2	3%	0	1.6	15%[15.4 µM]
O=C(CSc1n[nH]c(-c2cccnc2)n1)Nc1ccc(Cl)cc1	4	-6	-14%	-8	-2.9	-8%
COc1ccc(-c2noc(CCC(=O)N3CCN(c4cccc(Cl)c4)CC3)n2)cc1	-5	.	?	2	5.3	.
OCC1(Cc2cccc(Cl)c2)CCCN(Cc2cnn(-c3ccccc3)c2)C1 (stereo not drawn)	.	-16	4%	2	-1.8	0%
CN(c1ccc(C(=O)N2CCCCCC2)cc1)S(=O)(=O)c1ccc(Cl)cc1	9	9	-6%	-1	2.9	?
CC1(C)COCN1C(=O)c1ccc(Cl)c(Cl)c1	5	-13	10%	-3	-4.0	-2%[15.4 µM]
CN(C(=O)CC1C(=O)NCCN1Cc1c(F)cccc1Cl)C1CCOCC1 (stereo not drawn)	19	-15	3%	16	1.8	-6%
Cc1c(Cl)cccc1NC(=O)C(=O)NNS(=O)(=O)c1ccc(F)cc1	2	-1	1%	1	0.2	-18%

Molecules shown so far with a nitro group on carbon, in the order listed:
SMILES	CtBP-E1A blk	D2 PAM	gsp antag	Six1-Eya2 inh	D2 ag	gsp ag
Cc1cc(Br)ccc1NC(=O)C(C)c1ccc([N+](=O)[O-])cc1 (stereo not drawn)	.	-12	-8%	0	-0.8	1%
CC/C(C)=N/Nc1cccc([N+](=O)[O-])c1	-22	3	12%	-21	5.1	-23%
